# Source: PubChem (several laboratories)
# Beta apoptosis: inhibitors of cytokine-induced beta cell apoptosis, primary screen, luminescence. AID 435005, 2010. protection from apoptosis, % (test concentration not listed). INS-1E cytokine-induced death, ATP luminescence, 48 h; percent of positive-control rescue, neutral wells zero. 0.8% of 300,000 active;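 active = all replicates at 75% or more, or half of them and the mean; inconclusive = half reach 75% but not the mean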;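 note: 0% = cytokine-treated negative control wells and 100% = positive control rescue; higher means more ATP so stronger rescue from cytokine killing; wells of about 40 µL received 100 nL stock; the first replicate is given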
# A1 inh: caspase 3/7 activation in MEF A1-2A-BIM cells, primary screen, A1 inhibitor project, cell-based, luminescence, HTS | Caspase-Glo 3/7 luminescence, 3 h; percent of clofoctol response, vehicle zero | caspase activation, % (concentration not given with the values) | 0.066% of 330,000 active;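 active = over half of replicate activation scores above 10%, or exactly half above 10 with the replicate mean above 10; inconclusive = replicate mean below 10 yet half the replicates above 10; inactive = over half of replicates below 10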;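 note: wells of about 30 µL received 50 nL stock; many hits fall short of the cut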
# RanGTP-Impb inh: inhibitors of RanGTP-importin-beta interaction, primary screen, biochemical, FRET, CFP-Ran, YFP-importin-beta, homogeneous. 1.1% of 300,000 active. inhibition, % (concentration not given with the values). cell-free CFP-Ran/YFP-importin-beta FRET ratio. Ran GTPase (GTP-bound) - importin-beta complex;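 active = most replicates above 15%; inconclusive = exactly half above 15%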;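 note: 0% = DMSO wells and 100% = Ran loaded with GDP instead of GTP; wells of about 40 µL received 100 nL stock; the first replicate is given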
# LANA-H2A inh: blockers of LANA interaction with H2A/H2B – biochemical, FP readout, HTS, primary screen | Protein LANA1 (Human herpesvirus 8 type P (isolate GK18)), Q9QR71 | inhibition, % (test concentration not listed) | 0.6% of 320,000 active | AID 2629, 2010 | cell-free LANA-H2A/H2B peptide, fluorescence polarization; in the data active = inhibition mostly above about 10%, no sharp cut-off; inactive = mostly below about 6.7%;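 note: stock transfer was 7.5 nL into about 10 µL; 0% = median of vehicle wells and 100% = median of positive control wells; one replicate is shown; the record names a cut of 25% in any replicate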
# T cruzi repl: inhibitors of intracellular T. cruzi growth, primary screen, luminescence, NIH3T3 host cells. 1.4% of 300,000 active. T. cruzi beta-gal in NIH3T3, 90 h. inhibition, % (concentration not given with the values);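 active = mean inhibition across valid replicates above about 55%, limit read from the data; inconclusive = mean below that limit but half or more replicates reach it; inactive = mean below it, under half of replicates reach it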;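 note: signal also drops with host cell toxicity which is not excluded here; 0% = plate median of DMSO wells and 100% = zero luminescence signal; higher percent means less beta-gal luminescence so fewer parasites; stock transfer was 50 nL into about 50 µL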
# AF4-AF9 inh: inhibitors of AF4 peptide binding to AF9, primary screen, biochemical, AlphaScreen, biotin-AF4 peptide, FLAG-AF9, single point; 0.47% of 350,000 active; inhibition, % at 10 µM; Protein AF-9 (Homo sapiens), P42568;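 active = every replicate reaching a set inhibition limit, whatever the replicate mean, cut at about 25% in these data; inconclusive = mean inhibition reaches that limit but some replicates miss it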;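 note: 0% = plate neutral control median and 100% = total signal loss; the record names both 10 and 1 µM as test concentration; the first replicate is given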
# Target sequence (P42568 whole entry, looked up): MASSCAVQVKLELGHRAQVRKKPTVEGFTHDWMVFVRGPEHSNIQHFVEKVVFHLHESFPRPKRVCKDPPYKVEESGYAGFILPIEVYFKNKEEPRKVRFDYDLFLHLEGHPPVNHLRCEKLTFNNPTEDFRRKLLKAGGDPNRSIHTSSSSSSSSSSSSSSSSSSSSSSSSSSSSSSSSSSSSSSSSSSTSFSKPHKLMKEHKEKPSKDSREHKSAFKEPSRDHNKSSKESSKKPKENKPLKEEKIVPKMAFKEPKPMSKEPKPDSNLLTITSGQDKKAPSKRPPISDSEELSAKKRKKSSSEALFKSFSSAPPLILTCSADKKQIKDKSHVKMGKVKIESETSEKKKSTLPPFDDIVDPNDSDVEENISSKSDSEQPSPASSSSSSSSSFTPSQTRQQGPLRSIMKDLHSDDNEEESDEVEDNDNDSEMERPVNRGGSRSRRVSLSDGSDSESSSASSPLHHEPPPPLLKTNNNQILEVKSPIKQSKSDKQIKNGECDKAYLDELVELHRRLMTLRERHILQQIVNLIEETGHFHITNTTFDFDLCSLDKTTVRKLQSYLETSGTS
# Calb FLC: C. albicans growth inhibition with fluconazole, primary screen, CaCi-2 strain, Alamar Blue fluorescence. C. albicans CaCi-2 (fluconazole-resistant clinical isolate) + fluconazole, 48 h. growth inhibition, % (concentration not given with the values). 0.57% of 300,000 active. AID 1979, 2009;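 active = most replicates above 75%; inconclusive = exactly half above 75%; inactive = most below 75%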;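 note: all wells also contain fluconazole at 8 µg/ml as a sub-toxic cotreatment; 0% = median of DMSO wells and 100% = median of geldanamycin control wells; wells of about 8 µL received 7.5 nL stock; the first replicate is given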
# Vif TR-FRET: inhibitors of Vif binding to APOBEC3G peptide, primary screen, biochemical, TR-FRET, GST-Vif 1-94, biotin-A3G peptide, dose response retest (AID 1117319); Virion infectivity factor (Human immunodeficiency virus type 1 group M subtype B (isolate …; inhibition, %; hits with a dose series show IC50 in µM; 0.57% of 260,000 active; TR-FRET GST-Vif / biotin-A3G peptide binding; higher % means a stronger effect; test concentration not given here; strong numbers were not always called active;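 active = above the screen mean plus three standard deviations and confirmed in dose response; inconclusive = results disagree or hit not tested in dose response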;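 note: Vif residues 1-94 fused to GST binding biotinylated APOBEC3G peptide 110-148; 0% = full assay without inhibitor and 100% = GST in place of GST-Vif; retest series ran down from 100 µM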
# Active calls of the source: *; ? = inconclusive; . = not tested or not shown.
SMILES,Beta apoptosis,A1 inh,RanGTP-Impb inh,LANA-H2A inh,T cruzi repl,AF4-AF9 inh,Calb FLC,Vif TR-FRET
O=C(O)CCN1C(=O)c2ccc(Oc3ccc([N+](=O)[O-])cc3)cc2C1=O,-5,0.3,-1.4,-3.6,0,1.2,7,-8%
CCN1CCCC1CNC(=O)C(=O)NC(C)C (stereo not drawn),-5,0.2,-2.8,-0.5,-5,-3.8,16,13%
CCOC(=O)Cn1c(=O)c(-c2cc(Br)ccc2N)nc2ccccc21,49,0.5,-2.9,-3.3,-19,0.7,-1,4%
COc1ccc2nc(N(CCN(C)C)C(=O)/C=C/c3cccs3)sc2c1,-4,0.6,-0.6,-4.6,51,19,-9,23%
COc1cc2cnc(CCCC#N)cc2cc1OC,-13,0.0,.,-1.7,.,-5.4,.,.
COc1cc(C(=O)N/N=C/c2ccc(OC(=O)c3ccccc3Cl)c(OC)c2)ccc1O,-3,0.2,-0.2,2.5,7,.,57,.
COC(=O)c1cc(Br)c(=O)n(Cc2ccc(OC)c(OC)c2)c1,-3,-0.6,-2.8,-1.3,-22,.,-1,-4%
Cc1c(C(=O)O)oc2ccc(S(=O)(=O)N3CCC(C)CC3)cc12,-17,1.3,.,-1.8,.,.,.,65%
COc1cc(-c2nnn(CC(=O)NC3CCS(=O)(=O)C3)n2)ccc1OCc1ccccc1 (stereo not drawn),-1,0.7,2.7,-0.9,0,.,-5,-4%
COC(=O)c1ccc(NC(=O)COC(=O)C2CCC2)cc1,-3,-0.5,7.9,-6.4,-5,4.4,3,6%
COc1ccc2nc3sc(C(=O)NCCCN4CCc5ccccc5C4)cc3cc2c1,-9,-0.6,0.9,-1.3,12,5.8,-5,10%
CC1=N/C(=C/c2cc(Br)cc(Br)c2O)C(=O)O1,-6,0.9,2.2,-3.3,-7,4.5,6,.
Cc1ccc(CNC(=O)COc2ccc(C(=O)c3ccc(F)cc3)cc2)cc1,-13,-1.5,-2.4,-0.9,-29,.,3,.
CC(C)(C)OC(=O)C[C@@H]1C/C=C\C[C@H](CC(=O)N(CCO)Cc2ccccc2)C(=O)N[C@@H](Cc2ccccc2)COC1=O,-11,0.8,.,0.4,.,-5.7,.,.
CCCCn1c(N)c(N(CCC(C)C)C(=O)COC(=O)/C=C/c2ccc(F)cc2)c(=O)[nH]c1=O,-6,-0.1,.,-0.5,.,-1.9,.,17%
COc1ccc(CCNC(=O)C2CCN(S(=O)(=O)c3ccc(NC(C)=O)cc3)CC2)cc1OC,-6,0.3,-5.0,3.7,-16,-1.1,3,2%
Cc1ccnc(NC(=O)C2CCN(S(=O)(=O)c3ccc(C)c(C)c3)CC2)c1,-13,-0.3,-1.4,1.2,-3,5.5,1,4%
Cc1cccc(-n2ccnc2CN2CCN(C(C)C)C(CCO)C2)c1 (stereo not drawn),2,-0.1,0.6,-5.5,-2,-5.5,-8,2%
O=C(O)c1ccc(-n2cccc2)cc1O,5,-1.5,?,5.0,-8,.,-11,24%
CN(C)S(=O)(=O)c1cccc(C(=O)N2CCN(Cc3ccccc3)CC2)c1,-1,1.0,-2.7,-0.5,-26,.,-7,4%
COc1ccc(OC)c(NS(=O)(=O)c2cc(OC)ccc2OC)c1,.,0.6,0.8,0.8,5,.,7,9%
COc1ccc(C(=O)Nc2ccc(C)cc2C(=O)c2ccccc2)c(OC)c1,12,-0.4,-1.3,0.6,26,?,1,.
COCCN=C1N[C@@H](c2ccc(Br)cc2)C(C(=O)OC)=C(C)N1Cc1ccccc1,-1,-0.6,?,-13,22,2.8,2,.
CCN(CC)S(=O)(=O)c1ccc2nc(COC(=O)c3n[nH]c4ccccc34)[nH]c2c1,6,0.6,6.9,1.2,-3,.,0,-2%
COc1cccc(C(=O)N2CCCN(C)CC2)c1OC,0,0.5,4.7,-0.9,-8,0.4,1,-8%

# Additional compounds
SMILES,Beta apoptosis,A1 inh,RanGTP-Impb inh,LANA-H2A inh,T cruzi repl,AF4-AF9 inh,Calb FLC,Vif TR-FRET
Cc1ccc2c(Cn3cc(C(F)(F)F)cc(Cl)c3=O)cc(=O)oc2c1,-6,0.2,6.9,-5.6,-17,.,1,-2%
COC(=O)c1ccc2c(=O)n(CCCCCC(=O)NCc3ccccc3)c(=O)[nH]c2c1,-8,1.9,-0.2,1.6,6,.,33,7%
C/C(=N\NC(=O)Cn1nnc2ccccc21)c1ccco1,-1,-0.6,4.3,7.7,-19,-2.6,-13,.
CCOc1ccsc1C(=O)NNC(=O)c1ccco1,0,0.4,-2.9,3.0,-2,-2.4,-10,.
Cc1csc(NC(=O)CCNC(=O)c2ccccc2Cl)n1,-4,0.4,3.9,-7.6,-13,-1.3,7,24%
COc1ccc(-c2nnc(SCC(=O)NC(=O)NCc3ccco3)o2)cc1,-4,0.0,0.1,2.2,6,.,8,0%
COC(=O)Cn1cnc2scc(-c3ccc(C)c(C)c3)c2c1=O,-5,-0.4,2.8,1.3,14,-3.7,4,0%
O=C(CNC(=O)c1ccccc1F)OCc1nc2ccccc2s1,0,0.1,2.4,.,-18,-0.2,-24,.
Cc1ncoc1C(=O)N1CCCC(N2CCN(c3ccccc3F)CC2)C1 (stereo not drawn),-1,-0.8,2.0,-3.6,2,-2.1,3,.
CCNC(=O)Cc1c(OC)ccc2cc(Br)ccc12,8,-0.1,1.9,7.0,0,-0.4,9,-9%
Cn1c(=O)oc2cc(S(=O)(=O)N3CCC(C(=O)NCc4ccccc4Cl)CC3)ccc21,1,1.6,0.4,1.7,-10,0.9,2,10%
CC1(c2ccccc2)NC(=O)N(CC(=O)Nc2ccc(Cl)c(S(=O)(=O)N3CCCCC3)c2)C1=O (stereo not drawn),-8,0.1,-1.9,-2.3,2,-0.6,-6,.
CCOc1ccc(OCCC(=O)NNC(=O)c2nn(C)c(=O)c3ccccc23)cc1,-8,0.1,1.4,-2.1,8,-0.3,4,.
S=C(NCCc1ccccc1)Nc1ccc(Cl)cc1,0,-1.2,5.7,-2.4,-15,-7.3,-1,2%
Cc1ccccc1C(=O)/C=C1/SCC(=O)N1C,0,1.9,-2.5,1.0,6,0.2,?,8%
CC(C)(C)c1ccccc1OCCOCCN1CCCCCC1,19,0.0,6.1,1.4,56*,8.8,-19,-7%
CC(=O)Nc1ccc(OC(=O)c2cc([N+](=O)[O-])ccc2Cl)cc1,-1,-0.5,-1.2,-1.8,-19,0.6,16,5%
Cn1cc(CN2CCC(CO)CC2)c(-c2ccc(Oc3ccccc3)cc2)n1,-9,0.4,7.6,-2.8,7,1.7,-2,14%
O=C(CSc1ncccn1)Nc1ccc(N2CCOCC2)cc1,6,0.1,2.6,14,2,.,?,0%
COc1ccc(C2NC3=C(CCC3)C3(C#N)C4(N=C(N)C23C#N)OCCO4)cc1 (stereo not drawn),-1,2.5,6.7,0.3,11,.,-15,?
CCC(=O)Nc1ccc(C(=O)COC(=O)Cc2ccsc2)cc1,3,0.1,.,18*,.,-0.6,.,?
Cc1cc(=O)oc2cc(NC(=O)C3CC(=O)N(Cc4ccccc4)C3)ccc12 (stereo not drawn),-2,0.0,0.4,-3.1,-3,.,-8,14%
Nc1cc(C(F)(F)F)cc([N+](=O)[O-])c1N,-5,1.2,-3.5,-0.2,-2,3.4,45,.
COc1cc(C(=O)NCC(=O)OCc2ccccc2Cl)cc(OC)c1OC,-3,-0.2,0.1,-0.2,-15,-5.4,1,9%
N#CCN1CCCC(C(N)=O)C1 (stereo not drawn),-7,0.5,1.2,-1.3,-10,-1.7,-5,-2%

# (cont.)
SMILES,Beta apoptosis,A1 inh,RanGTP-Impb inh,LANA-H2A inh,T cruzi repl,AF4-AF9 inh,Calb FLC,Vif TR-FRET
CCCCCCCCCCOC(=O)C[N+](C)(C)C/C=C(/C)Cl,113*,0.0,-0.1,-4.4,0,-10,-37,-5%
Cc1cc2occ(CC(=O)N(C)CC(=O)Nc3ccccc3Cl)c2cc1C,.,-0.2,7.8,5.3,-1,-14,-2,-2%
O=C(O)Cn1c(SC2CCCCC2)nc2ccccc21,-3,-0.1,2.9,-1.3,-3,.,-7,73%
COc1ccccc1Nc1ncnc2c1c(C)c(C)n2CCO,-4,0.8,-2.9,2.4,7,0.2,2,-10%
C1CCN(c2nc(N3CCCCC3)nc(N3CCNCC3)n2)CC1,-7,-1.8,-2.7,-4.5,6,.,-3,13%
CS(=O)(=O)N1CCCC(C(=O)NCCc2ccc(Cl)cc2)C1 (stereo not drawn),-14,0.6,-2.4,5.7,-14,.,4,1%
COc1cc([N+](=O)[O-])ccc1NC(=O)/C=C/C(=O)O,2,0.0,-2.2,-2.0,-20,-0.9,-1,6%
COc1cc(NC(=S)NC(C)=O)ccc1NC(=O)C(C)C,0,-0.6,-2.6,-0.8,-1,.,9,-3%
NC(=O)c1ccsc1NC(=O)COC(=O)COc1ccccc1[N+](=O)[O-],0,0.5,.,-2.6,.,-0.1,.,16%
COc1ccc(-c2cnc(SCC(=O)Nc3cc(C)on3)n2Cc2ccco2)cc1,-3,0.3,-4.6,5.5,1,.,0,?
N#Cc1ccccc1CSc1ncccc1C(=O)O,2,-0.2,3.9,-0.4,0,0.9,21,-1%
Cc1ccc(NC(=S)N/N=C2\CC(C)(C)Oc3ccc(O)cc32)cc1,2,0.5,-2.8,-0.9,-8,-2.3,-1,.
O=C(O)CCC(=O)N1CCN(c2ncccn2)CC1,-9,0.2,5.0,1.2,-1,-8.7,-8,.
O=S1(=O)[C@H]2C[C@@H]3C=C[C@@]2(CN1Cc1ccccc1F)O3,1,0.6,-0.4,2.7,-20,3.3,-3,.
COC(=O)[C@H](Cc1c[nH]c2ccccc12)NC(=O)CCCc1c[nH]c2ccccc12,-4,-0.2,0.1,-2.5,-16,9.4,-1,-3%
COCCn1c(COc2ccc(OC)cc2)nc2ccccc21,-1,-2.5,1.1,-1.2,0,.,-7,?
CCCCCCn1c(N)c(C#N)c2ccc([N+](=O)[O-])cc2c1=O,-10,1.7,3.9,1.7,16,-0.6,26,9%
Cc1ccc(S(=O)(=O)Nc2nc3ccccc3nc2N2CCN(c3ccccc3F)CC2)cc1,-1,-0.5,-1.2,5.2,12,.,-7,-3%
CC1(C)CC2CC(C)(CN2C(=O)c2cc(-c3ccccc3O)on2)C1 (stereo not drawn),-1,-0.1,-1.3,0.7,17,0.1,2,-1%
O=C(CS(=O)(=O)c1ccccc1)Nc1ccccn1,0,-0.5,3.8,-1.7,-7,0.2,4,4%
COc1c([N+](=O)[O-])cc(C(=O)NNC(=O)c2ccc(C)cc2)cc1[N+](=O)[O-],-1,0.2,-2.2,-1.5,20,-4.0,-5,3%
COc1ccc(N2C(=O)c3ccccc3NC2c2ccc(OC)c(CSc3ccccn3)c2)cc1 (stereo not drawn),-1,-3.9,-5.6,-3.9,16,0.1,-26,2%
